Assay outcomes deposited in PubChem by National Center for Advancing Translational Sciences (NCATS).
VDR inhibitor: Inhibitors of the vitamin D receptor (VDR): qHTS | Vitamin D3 receptor (Homo sapiens), P11473 | VDR-SRC2-3 peptide fluorescence polarization, 2 h | Potency, µM, inactives show max response, negative = inhibition, usual class: inhibitors | 400,000 tested, 0.93% active; active = well fitted inhibition curve with a large enough effect; inconclusive = small, poorly fitted or top-dose-only effect, or another doubt; inactive = no such curve, though single readings can be large or run the other way; also: series mostly up to about 120 µM
Target sequence (P11473 whole entry, looked up): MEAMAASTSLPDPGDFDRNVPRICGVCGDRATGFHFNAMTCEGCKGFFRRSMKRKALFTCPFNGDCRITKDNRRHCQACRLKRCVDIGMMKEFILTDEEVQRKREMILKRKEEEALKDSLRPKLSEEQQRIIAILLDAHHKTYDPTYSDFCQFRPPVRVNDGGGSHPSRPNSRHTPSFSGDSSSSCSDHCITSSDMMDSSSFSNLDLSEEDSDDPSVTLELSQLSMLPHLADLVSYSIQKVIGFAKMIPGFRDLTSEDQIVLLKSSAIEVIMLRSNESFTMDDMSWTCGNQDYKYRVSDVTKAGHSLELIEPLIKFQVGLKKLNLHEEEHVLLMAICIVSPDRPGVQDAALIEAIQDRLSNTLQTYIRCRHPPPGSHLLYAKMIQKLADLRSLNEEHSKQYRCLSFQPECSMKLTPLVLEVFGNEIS
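FP read-out; VDR + SRC2-3 coactivator peptide; 23 nl compound by pintool; 2 h RT incubation; reagents held at 4 deg C, protected from light.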
An asterisk follows results filed as active; ? = inconclusive; & = joins results of further samples. % is scaled to controls: 0 for no effect and ±100 for the full control effect; potency is read from the fitted curve at half-maximal effect.

VDR inhibitor	molecule
-16%	CCc1cccc(NC(=O)CSc2nc3ccsc3c(=O)n2CC)c1
23%	COC(=O)Cc1c(OC)ccn(CCc2c[nH]c3ccccc23)c1=O
6%	O=C(NCCc1nnc2ccccn12)c1cccs1
1%	O/N=C(/c1ccc(F)cc1)C1CC1c1c(F)cccc1Cl (stereo not drawn)
-12%	CC(/C=N/n1c(-c2ccncc2)n[nH]c1=S)=C\c1ccco1
19%	O=C(C1CCN(S(=O)(=O)c2ccccc2[N+](=O)[O-])CC1)N1CCOCC1
5%	CCN(CC)CCC#CC1(O)c2ccccc2-c2ccccc21
3%	O=C(Cn1nc(C(=O)O)c2ccccc2c1=O)Nc1cccc(S(=O)(=O)N2CCCC2)c1
50µM*	O=C(Oc1oc(-c2ccco2)nc1C=Nc1ccccc1)c1ccoc1
-6%	FC(F)(F)c1ccnc(NCc2ccc(Cl)cc2)n1
3%	Cc1oc2cc(Br)c(O)c(Br)c2c1-c1ccccc1
-27%	O=C(O)c1cc(-c2ccc(/C=C3\NC(=O)N(c4ccc(Cl)cc4)C3=O)o2)ccc1Cl

Further results follow.
VDR inhibitor	molecule
?	COc1ccccc1-c1cc(C(F)(F)F)nc(S(=O)(=O)CCCC(=O)O)n1
4%	NS(=O)(=O)OCC(Cc1ccccc1)N1C(=O)c2ccccc2C1=O (stereo not drawn)
8%	CCOc1cc(C(=O)Nc2nnc(CC)s2)ccc1OCC(=O)N1CCOCC1
11%	COC(=O)c1ccc2c(=O)n(CCCCCC(=O)N3CCN(c4ccc(Cl)cc4)CC3)c(=O)[nH]c2c1
5%	O=c1cc(CSc2nnc(NC3CCCCC3)s2)nc2sccn12
19%	O=C(COc1cccnc1[N+](=O)[O-])c1c[nH]c2ccccc12
-9%	Cc1ccc2nc(-c3ccc(NS(=O)(=O)c4ccc(F)cc4)cc3)sc2c1
-8%	CCOC(=O)c1ccc(NC(=S)NC(=O)c2nn(CC)cc2Br)cc1
12%	COc1ccc(Oc2nc(-c3ccccc3)ncc2S(=O)(=O)c2ccccc2)cc1
4%	COCCn1c(SCC#N)nnc1-c1ccc(OC)cc1
14%	CCCC(=O)N1CC2(CCC)CN(C(=O)CCC)CC(CCC)(C1)C2=O
-8%	Cc1ccccc1C(=O)NC(=S)Nc1ccc(S(=O)(=O)N2CCOCC2)cc1

Further records
VDR inhibitor	molecule
-13%	COc1ccc(CN2CCN(C(=O)c3c(-c4ccccc4)noc3C)CC2)cc1F
79µM*	O=C1C2C3C=CC(CNS(=O)(=O)c4ccccc4)(O3)C2C(=O)N1c1ccc(Cl)cc1 (stereo not drawn)
14%	Cc1ccc2c(c1)c1c(c(=O)n(-c3cccc(Cl)c3)c(=O)n1CC(=O)NCCC1=CCCCC1)n2C
-7%	O=c1cnc2ccccc2n1Cc1ccccc1C(F)(F)F
-2%	O=C(N/N=C\c1ccc([N+](=O)[O-])o1)c1cncc(Br)c1
3%	CC1C(C#N)=C(N)OC2=C1C(=O)CCC2 (stereo not drawn)
?	Cc1ccc(-n2[nH]c(C)c(/C=N/Nc3ccc([N+](=O)[O-])cc3[N+](=O)[O-])c2=O)cc1C
-4%	O=C(CCCCCn1nnc2ccccc2c1=O)Nc1ccccc1Cl
0%	N#CCCn1c(=O)n(CCC#N)c2ccccc21
1%	CCOC(=O)C1=C(C)N(C[C@@H]2CC[C@@H](Cc3ccc(-c4ccccc4)cc3)O2)C(=O)NC1C1CC1 (stereo partly drawn)
2%	CCCCNC(=O)CC(=O)Nc1ccccc1C(=O)O
-9%	CC(C)(C)c1ccc(-c2nc3cc(NC(=O)c4cccc(Br)c4)ccc3o2)cc1

The listing continues:
VDR inhibitor	molecule
-1%	Cn1c(=O)cc(SCC(=O)N2CCN(c3ccccn3)CC2)c2ccccc21
-7%	Fc1cccc(Cl)c1Cn1nnc2c(-n3ccnc3)ncnc21
0%	O=C1CN(C(=O)COC(=O)c2ccccc2NCc2ccco2)c2ccccc2N1
-16%	CCN(CC)CCC#CC(O)(c1ccccc1)C1CCCCC1 (stereo not drawn)
-1%	CC(NC(=O)c1cc(S(=O)(=O)N(C)C)ccc1Cl)C1CC2CCC1C2 (stereo not drawn)
-3%	O=S(=O)(c1ccc(-c2n[nH]c(=S)o2)cc1)N1CCCC1
20%	CCOC(=O)C1(CC)NC(c2ccc(N(C)C)cc2)C2C(=O)N(C)C(=O)C21 (stereo not drawn)
-6%	Cn1cc(S(=O)(=O)NCc2ccco2)c(=O)n(C)c1=O
-8%	O=C(Cc1ccc(-n2c(=O)c3sccc3n(CC(=O)Nc3ccccc3F)c2=O)cc1)NCc1ccco1
11%	CC(C)c1nc(CNC(=O)C2CCC(=O)N(CCc3ccc(Cl)cc3)C2)no1 (stereo not drawn)
-9%	CC(C)C(=O)NC(NC1CCS(=O)(=O)C1)C(Cl)(Cl)Cl (stereo not drawn)
7%	O=S1(=O)N=C(N2CCCc3ccccc32)c2ccccc21

(next part)
VDR inhibitor	molecule
-2%	O=C(NC1CC1)c1sccc1-n1cccc1
-15%	O=C(CC1S/C(=N\S(=O)(=O)c2ccc(F)cc2)N(c2ccccc2)C1=O)Nc1ccccc1 (stereo not drawn)
-12%	COc1ccc(Cc2nc(-c3cccs3)no2)cc1OC
9%	CCN1CCCC1CN(Cc1cc2ccc(C)cc2[nH]c1=O)C(=S)Nc1cccc(OC)c1 (stereo not drawn)
2%	Oc1c(Cl)cc(Cl)cc1C(C#Cc1ccccc1)N1CCOCC1 (stereo not drawn)
-25%	COC(CNC(=O)C(C)n1nc(C)c2ccccc21)OC (stereo not drawn)
19%	CC(C)NC(=O)Nc1cccc(Cl)c1
-10%	CN(Cc1ccccc1)C(=O)c1cnc2n(c1=O)CCS2
-15%	COc1ccc(CCN2C(=O)CCC2(C)C(=O)NC2CCCC2)cc1OC (stereo not drawn)
-1%	CC(=O)OCC1OC(n2ccc(=O)[nH]c2=O)C(O)C1O (stereo not drawn)
-8%	CC(=O)Nc1ccc(S(=O)(=O)Nc2ccc(Cl)nn2)cc1
?	O=C(CSc1nc2ccccc2nc1N1CCCC1)Nc1ccc(Cl)cc1

Additional records.
VDR inhibitor	molecule
1%	Cc1ccc(-n2nc3c(c2NC(=O)c2cccs2)CS(=O)(=O)C3)cc1
-12%	C=C(C)COc1ccc2oc(C)c(C(=O)OCCOC)c2c1
3%	CC12CC3CC(C)(C1)CC(C(=O)Nc1nn[nH]n1)(C3)C2
-8%	COc1ccc(OC)c(S(=O)(=O)NCCO)c1
-2%	CC(C)Oc1ccc2c(=O)cc(-c3ccccc3)oc2c1
4%	O=c1c2cc(F)ccc2[nH]c(=S)n1Cc1ccc(F)cc1
9%	Cc1ccc2nc(C)c3c(c2c1)N(c1ccccc1)CC3
?	CCc1ccc(NC(=O)CSc2nc3ccsc3c(=O)n2CCC(=O)O)cc1
6%	O=C(O)c1csc(Cc2ccccc2)n1
10%	O=C(Nc1cccc2c1CCCC2)c1ccccc1Cl
4%	NCCO/C=C/[C@H](N)C(=O)O
18%	O=C(Nc1cccc2cccnc12)c1cccnc1

Reformatted as a markdown table: part of the list above.
| smiles | VDR inhibitor |
| --- | --- |
| COC(CNC(=O)C(C)n1nc(C)c2ccccc21)OC (stereo not drawn) | -25% |
| CC(C)NC(=O)Nc1cccc(Cl)c1 | 19% |
| CN(Cc1ccccc1)C(=O)c1cnc2n(c1=O)CCS2 | -10% |
| COc1ccc(CCN2C(=O)CCC2(C)C(=O)NC2CCCC2)cc1OC (stereo not drawn) | -15% |
| CC(=O)OCC1OC(n2ccc(=O)[nH]c2=O)C(O)C1O (stereo not drawn) | -1% |
| CC(=O)Nc1ccc(S(=O)(=O)Nc2ccc(Cl)nn2)cc1 | -8% |
| O=C(CSc1nc2ccccc2nc1N1CCCC1)Nc1ccc(Cl)cc1 | ? |
| Cc1ccc(-n2nc3c(c2NC(=O)c2cccs2)CS(=O)(=O)C3)cc1 | 1% |
| C=C(C)COc1ccc2oc(C)c(C(=O)OCCOC)c2c1 | -12% |
| CC12CC3CC(C)(C1)CC(C(=O)Nc1nn[nH]n1)(C3)C2 | 3% |
| COc1ccc(OC)c(S(=O)(=O)NCCO)c1 | -8% |
| CC(C)Oc1ccc2c(=O)cc(-c3ccccc3)oc2c1 | -2% |
| O=c1c2cc(F)ccc2[nH]c(=S)n1Cc1ccc(F)cc1 | 4% |
| Cc1ccc2nc(C)c3c(c2c1)N(c1ccccc1)CC3 | 9% |
| CCc1ccc(NC(=O)CSc2nc3ccsc3c(=O)n2CCC(=O)O)cc1 | ? |
| O=C(O)c1csc(Cc2ccccc2)n1 | 6% |

Other structures:
VDR inhibitor	molecule
-27%	O=S(=O)(Nc1ccc(O)c(Sc2nc3ccccc3s2)c1)c1ccc(Cl)cc1
-26%	Cc1ccc(N=Nc2c(C)[nH]n(C(N)=S)c2=O)cc1C
6%	Fc1cccc(-c2nnn3c2nc(NCCc2ccccc2)c2ccccc23)c1
4%	O=c1c(NCc2ccccc2Cl)nccn1-c1ccccc1
-5%	C#CCOC(=O)/C(=C/C=C/c1ccccc1)NC(=O)c1ccccc1
-1%	Cc1csc(NC(=S)Nc2cccc(Cl)c2)n1
11%	COC(=O)C1=C(C)NC2=C(C(=O)CCC2)C1c1cn(Cc2ccc(Br)cc2)nc1-c1ccccc1 (stereo not drawn)
-2%	COc1cc(Br)c(Br)cc1N
-3%	CCCS(=O)(=O)N1CCCC(C(=O)Oc2ccc(OC)cc2)C1 (stereo not drawn)
-6%	CCN1CCN(C(=O)c2ccc(CS(=O)Cc3ccc(C)cc3)o2)CC1 (stereo not drawn)
10%	CC(C)(C)c1ccc(/C=C2\Oc3cc(O)ccc3C2=O)cc1
-1%	O=C(c1cnccn1)N1CCN(c2ccccc2F)CC1

Next part.
VDR inhibitor	molecule
?	COc1ccc(-c2nc3cnc(N4CCN(C)CC4)nc3n(-c3ccc(OC)cc3)c2=O)cc1
2%	Cc1ccc(NC(=O)C(Cc2ccccc2)NC(=O)OCc2ccccc2)cc1C (stereo not drawn)
-7%	CCc1cccc(NC(=O)C2CCCN2S(=O)(=O)c2cccc3cccnc23)c1 (stereo not drawn)
-2%	O=C(CSc1n[nH]c(=O)n1C1CC1)NCc1ccccc1
?	Cc1ccc(-c2nc(CS(=O)CC(=O)NC3CCC(C)CC3)c(C)o2)cc1 (stereo not drawn)
14%	O=C(Nc1nnc(Cc2ccccc2F)s1)Nc1ccccc1F
2%	CC1=CC(=O)C=C(C)C1=NOC(=O)/C=C\c1ccccc1
8%	Cc1cc(OCc2nnc(SC(C)C(=O)O)n2-c2ccccc2)ccc1Cl (stereo not drawn)
-26%	CC(C)(C)c1ccc(OCc2nc3ccccc3n2CCOc2ccccc2)cc1
-5%	COc1ccc(C2NCCc3c2[nH]c2ccccc32)cc1COc1ccc(F)cc1 (stereo not drawn)
0%	CCCCOc1ccc(Cl)cc1CSc1nnc(C)n1N
2%	CSc1nc(C)cc(OCC(=O)n2nc(C)cc2C)n1

Next part (2 carried over from the part before).
VDR inhibitor	molecule
0%	CCCCOc1ccc(Cl)cc1CSc1nnc(C)n1N
2%	CSc1nc(C)cc(OCC(=O)n2nc(C)cc2C)n1
-15%	COc1ccc(N(CC(=O)NCCC2=CCCCC2)S(=O)(=O)c2c(C)[nH]c(=O)[nH]c2=O)cc1
-13%	CCOc1ccc(CN2C(=O)c3ccccc3Sc3ccc(C(=O)N4CCN(C)CC4)cc32)cc1
-4%	O=C(/C=C/c1cccs1)N1CCCC1
12%	CCN(CC)S(=O)(=O)c1ccc(/C=C/C(=O)OCC#N)cc1
-3%	CCN1C(=O)C(C(=O)Nc2ccc(OC)cc2)C2CC1(C)Oc1ccccc12 (stereo not drawn)
11%	Cc1ccc(CNC(=O)c2cccc(OCc3c(C)noc3C)c2)cc1
9%	O=C(O)c1ccc2oc(=O)n(Cc3ccccc3)c2c1
-21%	Cc1cc(C)cc(NC(=O)N2CCN(Cc3ccc4c(c3)OCO4)CC2)c1
-1%	CC1CCN(c2ccccc2NC(=S)NC(=O)c2cccs2)CC1
1%	Cc1ccc(S(=O)(=O)N2CCN(S(=O)(=O)c3ccc4c(c3)OCCCO4)CC2)cc1
-17%	COc1ccc(N2CC(C(=O)N3CCN(c4ccccc4OC)CC3)CC2=O)cc1 (stereo not drawn)
-17%	CCOC(=O)CN1CC23C=CC(O2)C(C(=O)Nc2cc(OC)ccc2OC)C3C1=O (stereo not drawn)

Next structures.
VDR inhibitor	molecule
5%	O=C(NCC(c1ccco1)N1CCCCC1)c1cc2c(s1)CCCC2 (stereo not drawn)
5%	Cc1cc(C)c(NC(=O)c2cc(C)nc3c2c(C)nn3-c2cccc(F)c2)c(C)c1
17%&-12%	COc1cc2c(c(OC)c1OC)-c1ccc(OC)c(=O)cc1C(NC(C)=O)CC2 (stereo not drawn)
?	CCc1nc(SCC(=O)c2ccc3c(c2)OCCO3)c2ccccc2n1
7%	COc1ccc(NC(=O)c2nn(C)c3c2CSc2ccc(C)cc2-3)cc1OC
-14%	CCNS(=O)(=O)c1ccc(OC)c(C)c1
4%	CCN(Cc1ccncc1)C(=O)c1ccc(C)o1
-3%	Cn1nnnc1SCCCNCc1cccc(OCc2ccccc2F)c1
4%	O=C(O)C1CCCCN1S(=O)(=O)c1ccc2ccccc2c1 (stereo not drawn)
-3%	c1ccc(OCCN2CCN(C(c3ccccc3)c3ccccc3)CC2)cc1
6%	O=C(CSC1CN(C(c2ccccc2)c2ccccc2)C1)N/N=C/c1ccccc1
-2%	CC1CCCN(c2ccc(C(=O)NCc3ccccc3)cn2)C1 (stereo not drawn)
-15%	COc1ccc(CNC(=O)CNC(C)c2ccc(F)cc2)cc1 (stereo not drawn)
-1%	COc1cccc(OC)c1OCCCCCc1c(C)n[nH]c1C
7%	CC(C)(CNC(=O)c1ccc(NS(=O)(=O)c2ccc(Br)cc2)cc1)N1CCOCC1

This is a subset; rates above refer to the full screens.
